PMP22 txn prim: Cell-based coincidence reporter assay to measure PMP22 gene transcription in S16 Pmp22-F2sN cells - Primary screen. S16 Pmp22-F2sN Schwann cells (luciferase reporters placed in the Pmp22 gene), FLuc/NLuc coincidence luminescence, 24 h. Potency, µM (highest dose often 57.5 µM), inactives show at the top dose activity change, negative = inhibition, usual class: inhibitors. 2% of 43,000 active. AID 1508649, 2021; active = clear falling dose curves in both reporters; inconclusive = both reporters move, but less clearly or upward; inactive = either reporter flat; the % is the NLuc reporter signal; note: % is set by controls: 0 for no effect and ±100 for the full control effect; some results filed as inactive show a strong effect at the top dose
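S16 Schwann cells carrying FLuc/NLuc coincidence reporter in the Pmp22 3' UTR treated with compound 24 h at 37C; FLuc then NLuc luminescence read sequentially by dual-luciferase reagents.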
HTT prom inh: Primary qHTS for Identification of Small Molecule Inhibitors of Huntingtin Promoter Activity. HEK293 HTT promoter firefly luciferase reporter (activity 0% = vehicle and -100% = no light), 24 h. Potency, µM (top dose mostly 57.5 µM), for inactives: at the highest dose activity change, negative = inhibition, actives largely listed as inhibitors. 0.93% of 48,000 active; active = well fitted inhibition curve with a large enough effect; inconclusive = small, poorly fitted or top-dose-only effect; inactive = no such curve, though single readings can be large or run the other way; note: nearly all actives have a fitted effect of over 50% in size
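HEK293 luciferase promoter-reporter cells (2,500/well) plated 24 h, then compounds added at up to 57.5 uM final for 24 h at 37 °C. Firefly luminescence by Dual-Glo, normalized to vehicle (0%) and zero RLU (-100%).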
The depositor's hits bear a star; u = inconclusive; x = not tested or not shown; [ ] = dose if it differs, or a comment. Potency is the fitted concentration of half-maximal effect. The list is partial; rates above refer to the full screens.

Results follow in this order: PMP22 txn prim | HTT prom inh
COc1ccc(NC(=O)CSc2nc(-c3ccc(OC)cc3)[nH]c2-c2ccc(F)cc2)cc1
  -10.2% | -29.8%
COc1ccc(CNC(=O)C(=O)Nc2ccccc2OC)cc1
  1.5% | -24.8%[11.5 µM]
Cc1ccc(C(=O)CC2(O)C(=O)N(Cc3ccccc3)c3ccc(Br)cc32)cc1 (configuration not stated)
  u | u
Cc1ccc(-c2nnc(Nc3cccc(Cl)c3)c3ccccc23)cc1S(=O)(=O)NCC1CCCO1 (configuration not stated)
  u | u
COc1cccc(NC(=O)Cn2c(=O)n(Cc3ccccc3)c(=O)c3ccccc32)c1
  1.2% | -19.3%
CCN(CC)C(=O)Cn1ncc2c([nH]c3ccc(C)cc32)c1=O
  2.1% | 2.6%
COc1ccc(-n2ccnc(NCCc3ccc(Cl)cc3)c2=O)cc1OC
  u | u
O=C(Nc1nonc1-c1ccc(Cl)cc1)c1ccccc1F
  1.3% | u
Cc1ccccc1CNC(=O)c1ccc(CS(=O)Cc2ccc(Cl)cc2)o1 (configuration not stated)
  -23.2% | -28.2%
CC(=O)N1CCc2cc(CNC(=O)Cc3ccc(F)cc3)ccc21
  3.0% | 62.6%[activator]
COc1cc(C2c3c(-c4cc(C)ccc4O)n[nH]c3C(=O)N2Cc2cccnc2)cc(OC)c1OC (configuration not stated)
  u | 16.7%
COc1ccc(C2CC(=O)c3c([nH]c(C(=O)OC4CCCC4)c3C)C2)cc1OC (configuration not stated)
  u | -19.7%
COc1ccc(NC(=O)c2c(NCc3ccc(C)o3)sc3c2CCC(C)C3)cc1 (configuration not stated)
  u | -3.5%
COc1cc(NC(=O)NCC2CCN(Cc3ccccc3Cl)CC2)cc(OC)c1OC
  -4.3% | -9.6%
O=C(CSc1ncc2c(n1)-c1cc(Cl)ccc1N(Cc1ccccc1)S2(=O)=O)Nc1ccc(F)cc1F
  u | -28.1%
Cc1cc(C)c2c(CC(=O)Nc3ccc(S(=O)(=O)N4CCCC(C)C4)cc3)coc2c1 (configuration not stated)
  -16.2% | u
O=C(NCCc1ccccc1)C1CCN(c2nc3ccccc3nc2C(F)(F)F)CC1
  u | 5.6%
Cc1c(C(=O)N(C)C)sc2c1c(=O)n(-c1ccc(Cl)c(Cl)c1)c(=O)n2CC(=O)C(C)(C)C
  -10.1% | 2.3%
Cc1c(C(=O)N(Cc2ccccc2F)C2CCS(=O)(=O)C2)oc2ccccc12 (configuration not stated)
  -14.9% | -10.7%
Cc1ccc(C(=O)CC2(O)C(=O)N(Cc3ccccc3F)c3ccccc32)cc1 (configuration not stated)
  u | u
CCOc1ccc(S(=O)(=O)N2CCN(Cc3nc4ccc(C)cc4o3)CC2)cc1
  -9.3% | u
CC[C@@]1(O)C(=O)OCc2c1cc1n(c2=O)Cc2cc3cc(O)ccc3nc2-1
  x | u
Cc1ccc(CNC(=O)C2CCN(S(=O)(=O)c3ccc4nc5c(c(C(=O)O)c4c3)CC(C)CC5)CC2)cc1 (configuration not stated)
  u | -10.0%
Cc1cc(C)n2nc(CNS(=O)(=O)c3cccc(Cl)c3)nc2n1
  -10.1% | 0.7%
COCCCNC(=O)Cn1c(=O)n(CCCC(=O)NCc2ccc(C)cc2)c(=O)c2ccccc21
  -1.2% | -5.0%
CC(C)Cc1nn2c(=O)cc(COC(=O)c3ccc4c(c3)OCO4)nc2s1
  69.7% | -22.4%
COc1ccc(CC(=O)NCc2nc3cccnc3n2Cc2ccc(C)cc2)cc1OC
  -11.2% | -13.8%
COC(=O)c1cc(S(=O)(=O)N2CCN(c3ccc(C)cc3C)CC2)cn1C
  -0.9% | -5.1%
CCOC(=O)c1ccc(NC(=O)c2cc(=O)c3cc(CC)ccc3o2)cc1
  -9.1% | 24.9%[11.5 µM]
CCCCCn1c(CCNC(=O)c2ccc(F)cc2)nc2ccccc21
  u | -14.0%
CC(C)c1ccc(NC(=O)c2cn(C3CCCCC3)c(=O)c3c2c2ccccc2n3C)cc1
  -5.7% | -6.5%
COc1ccccc1Nc1nn2c(=O)c3ccc(C(=O)N4CCC(C)CC4)cc3nc2s1
  u | u
Cc1ccc(NC(=O)CSc2nc3ccccc3n2CC(=O)N2CCC(C)CC2)cc1C
  u | u
CNS(=O)(=O)c1cn(CC(=O)Nc2ccc(OC)cc2OC)cc1S(=O)(=O)NC
  10.9% | 9.2%
Cn1ncc2c(Nc3cccc(C#N)c3)ncnc21
  -39.1% | 31.0%[activator]
Cc1ccc(NC(=O)CSc2c3c(nc4ccccc24)CCCC3)cc1F
  u | -19.0%
Cc1c(Cl)cccc1-n1ncc(C(=O)N2CCN(C)CC2)c1C1CCN(C(=O)OC(C)(C)C)CC1
  -19.7% | -5.7%
CCCCNC(=O)CCC(=O)NNc1nc2ccccc2c2nc(-c3ccccc3)nn12
  -4.1% | -3.4%
Cc1cc(C)c(Cn2c(=O)n(CCCC(=O)NCc3ccc4c(c3)OCO4)c(=O)c3sccc32)c(C)c1
  u | -6.4%
COc1ccc(Nc2ccc3cc(S(=O)(=O)N4CCCC4)ccc3n2)cc1OC
  u | 9.3%
CC(C)(C)OC(=O)N1CCC(c2c(C(=O)NCCc3ccccc3)cnn2-c2ccc(F)cc2F)CC1
  -62.4% | -5.3%
Cc1ccc2scc(N3CCCCC3)c(=O)c2c1
  -18.7% | 6.1%
Cc1ccc(-c2onc(C)c2C)cc1S(=O)(=O)Nc1ccccn1
  1.0% | 6.5%
COc1ccc(Cn2c(CCC(=O)Nc3cccc(Cl)c3)nc3cccnc32)cc1
  -12.2% | -27.9%
Cc1ccc(NC(=O)CSc2ncccc2C(=O)Oc2ccccc2Cl)cc1Cl
  u | -16.2%

As entered above.
Reading for CNS(=O)(=O)c1cn(CC(=O)Nc2ccc(OC)cc2OC)cc1S(=O)(=O)NC under HTT prom inh: 9.2%
Reading for COc1ccc(Nc2ccc3cc(S(=O)(=O)N4CCCC4)ccc3n2)cc1OC under HTT prom inh: 9.3%

(list continues)
Results follow in this order: PMP22 txn prim | HTT prom inh
CCC(=O)Oc1ccc2c(c1)CC[C@@H]1[C@@H]2CC[C@@]2(C)[C@H]1C[C@@H](OC(=O)CC)[C@@H]2OC(=O)CC
  x | 12.1%
CCc1ccc(NC(=O)CSc2nc3ccsc3c(=O)n2C(C)CC)cc1 (configuration not stated)
  u | u
Cc1ccc(Cn2ccnc2SCC(=O)Nc2ccc3c(c2)OCCO3)cc1
  -12.1% | 7.1%
O=C(COCc1cc(-c2ccco2)on1)Nc1cccc(Cl)c1Cl
  -4.7% | -3.0%
Cc1ccc(C)c(NC(=O)Cn2ncc3c(C)n(Cc4ccc(F)cc4)c(C)c3c2=O)c1
  22.8% | -12.5%
Cc1cccc(NC(=O)c2sc(-n3nc(C)c(Cc4ccc5c(c4)OCO5)c3C)nc2C)c1C
  -31.7% | -8.3%
CC(C)Cn1cc(NC(=O)N2CCN(c3cccc(Cl)c3)CC2)c2ccccc2c1=O
  1.0% | -21.5%
Cc1cc(C)cc(Oc2nc3ccccn3c(=O)c2/C=C(\C#N)c2nc3ccccc3s2)c1
  u | -4.2%[11.5 µM]
COc1cc(-c2noc(-c3cc4cc(F)ccc4oc3=O)n2)cc(OC)c1OC
  -13.9% | 1.0%
CCOc1ccc(NC(=O)CSc2nc3ccccc3nc2N2CCOCC2)cc1
  4.4% | -26.7%
COc1ccc(CNC(=O)CCc2c(C)c3cc4c(C)coc4c(C)c3oc2=O)cc1OC
  u | -9.8%
COCCCNC(=O)c1c(NC(=O)Cc2coc3c(C)c(C)ccc23)sc2c1CCCC2
  u | -20.2%
COc1ccc(CCNC(=O)CCc2c(C)nc3c(-c4ccc(F)cc4)c(C)nn3c2C)cc1OC
  u | -10.5%
COc1cccc(CNC(=O)CCCn2nc(C)n3c(cc4sccc43)c2=O)c1
  -12.5% | -0.1%
COc1ccc(CCNC(=O)Cn2c(=O)c3sccc3n(CC(=O)Nc3cccc(C(F)(F)F)c3)c2=O)cc1OC
  -15.4% | 0.6%
Oc1c(C(c2ccc(F)cc2)N2CCN(Cc3ccccc3)CC2)sc2nc(-c3ccco3)nn12 (configuration not stated)
  14.0% | -0.1%
CCCN(C(=O)c1nn(-c2ccc(C)cc2)c(=O)c2c1c1ccccc1n2C)c1ccccc1C
  u | -20.5%
O=C1CC(c2ccccc2)Cc2[nH]c(=O)c(C(=O)Nc3cccc(Cl)c3)cc21 (configuration not stated)
  12.4% | -5.5%
COc1ccc(OC)c(CNS(=O)(=O)c2ccc(-c3coc(C)n3)cc2)c1
  u | u
O=C(Cn1nnnc1-c1ccccc1F)Nc1ccc(OC(F)(F)F)cc1
  1.8% | -4.3%
Cc1ccc(C2CCN(C(=O)Nc3ccc(Cl)c(Cl)c3)C2)cc1 (configuration not stated)
  u | 15.2%
CCc1nnc(SCc2nc(-c3ccc(OC)c(OC)c3)oc2C)c2cc3sc(C)cc3n12
  -10.2% | -5.4%
COc1ccccc1CCNC(=O)c1cc2ccccn2n1
  -6.3% | 31.9%[activator]
CC1=C(C(=O)NCc2ccc(Cl)cc2)C2(CCCCC2)OC1=O
  -3.9% | -26.6%
COc1ccc(-c2nc3ccccc3s2)cc1NC(=O)c1cc2ccccc2o1
  -119.6% | 6.1%
Cc1nc2c3ccccc3nc(NNC(=O)CCC(=O)O)n2n1
  -5.3% | 3.0%
O=C(CSc1nnc(-c2ccccc2F)o1)N1CCc2ccccc21
  11.6% | 7.8%
CC(=O)c1ccc(N2CCN(c3ncnc4c3nc3n4CCCC3)CC2)cc1
  u | u
CC1Cn2cc(C(=O)Nc3cccc(C(F)(F)F)c3)c(=O)c3c(Cl)ccc(c32)O1 (configuration not stated)
  u | -6.1%
NC(=O)Cn1c(=O)n(CCCCCC(=O)NCc2ccc3c(c2)OCO3)c(=O)c2sccc21
  -7.7% | -0.6%
CC(=O)OCC(=O)[C@@]12N=C(C)O[C@@H]1C[C@H]1[C@@H]3CCC4=CC(=O)C=C[C@]4(C)[C@H]3[C@@H](O)C[C@@]12C
  x | -1.6%
CCOC(=O)C1CCCN(CC(=O)N2CCCc3c2c(=O)oc2ccc(OCc4ccccc4)cc32)C1 (configuration not stated)
  -19.9% | -28.0%
Cc1c(C(=O)NCCc2ccccc2)cccc1-n1cnc2cccnc21
  -3.4% | -12.0%
CC(=O)N1c2ccc(S(=O)(=O)NCCC(=O)Nc3ccc(Br)c(C)c3)cc2CC1C (configuration not stated)
  u | u
Cc1ccc(-c2nc3sc(CCNC(=O)c4ccc(F)c(F)c4)c(C)n3n2)cc1
  -29.6% | -22.4%
CCn1nc(-c2ccccc2)c(-c2ccccc2)c(C(=O)Nc2ccc(S(N)(=O)=O)cc2)c1=O
  2.4% | -4.6%
COc1ccc(Cn2c(SCc3ccc(C(=O)NCc4cccs4)cc3)nc3ccncc32)cc1
  -7.6% | u
CCN(CCCNC(=O)c1cc2c(=O)[nH]c3ccc(C)cc3c2s1)Cc1ccccc1
  u | -20.9%
Cc1cc(C(=O)Nc2cccc(C(F)(F)F)c2)c2c(C)nn(-c3cccc(F)c3)c2n1
  u | u
CC(=O)c1ccc(NC(=O)c2cc3c(=O)oc4ccc(C)cc4c3s2)cc1
  -46.4% | -13.1%
COc1cc(OC)cc(C(=O)Nc2nnc3n2CCS3)c1
  -47.8% | 0.7%
CCc1ccc(NC(=O)C(=O)NCC(c2cccnc2)N2CCN(c3ccc(F)cc3)CC2)cc1 (configuration not stated)
  u | u
CN(C)c1ccc(CNC(=O)Cn2ccc3cc(S(=O)(=O)N4CCCCCC4)ccc32)cc1
  u | -27.5%
Cc1ccc(NC(=O)Nc2nnc(N(C)C3CCCCC3)s2)c(Cl)c1
  -24.4% | -17.4%
O=C(Nc1nnc(S(=O)(=O)N2CCCCCC2)s1)c1ccccc1Cl
  61.9% | -17.7%
COc1ccc(CNC(=O)CCS(=O)(=O)c2cc3c4c(c2)CCN4C(=O)CC3)cc1OC
  -24.0% | -12.4%
CCCSCCCNC(=O)c1ccc2nc(Cc3ccccc3)oc2c1
  -1.9% | 0.0%
COc1ccc(OC)c(C2C(C(=O)Nc3ccc(C)cc3)=C(C)Nc3nnnn32)c1 (configuration not stated)
  9.4% | -14.8%
CCNC(=O)c1c(NC(=O)COc2ccc(F)cc2)sc2c1CCCC2
  -0.5% | -3.6%
CCC1CCc2nc3sc(C(=O)Nc4cccc(C(F)(F)F)c4)c(N)c3cc2C1 (configuration not stated)
  -45.4% | -24.1%
Cc1cccc(NC(=O)CN2C(=O)C(c3ccc(F)cc3)=NC23CCCCCC3)c1
  u | u
CCOc1ccc(N(CC)S(=O)(=O)N2CCCC(C(=O)NCCc3ccc(OC)cc3)C2)cc1 (configuration not stated)
  u | u
CCn1c(SCc2ccccc2C)nc(=O)c2c(C(=O)OC)cc(C3CC3)nc21
  u | u
Cc1ccc(CNC(=O)c2cn(C)c3ccc(S(=O)(=O)N4CCOCC4)cc3c2=O)cc1
  -15.5% | -4.4%
Cc1ccc(CNC(=O)c2ccc3oc(=O)n(Cc4ccccc4)c3c2)cc1
  u | -15.5%

Assay outcomes from PubChem BioAssay.
